Bioassay records deposited in PubChem by National Center for Advancing Translational Sciences (NCATS).
VDR inhibitor = vitamin D3 receptor (human) inhibition; P11473; VDR-SRC2-3 peptide fluorescence polarization, 2 h; Potency, µM, for inactives: max response, negative = inhibition, actives largely listed as inhibitors; hit rate 0.93% among 400,000; active means well fitted inhibition curve with a large enough effect; inconclusive means small, poorly fitted or top-dose-only effect, or another doubt; inactive means no such curve, though single readings can be large or run the other way; further: series mostly up to about 120 µM
Target sequence (P11473 whole entry, looked up): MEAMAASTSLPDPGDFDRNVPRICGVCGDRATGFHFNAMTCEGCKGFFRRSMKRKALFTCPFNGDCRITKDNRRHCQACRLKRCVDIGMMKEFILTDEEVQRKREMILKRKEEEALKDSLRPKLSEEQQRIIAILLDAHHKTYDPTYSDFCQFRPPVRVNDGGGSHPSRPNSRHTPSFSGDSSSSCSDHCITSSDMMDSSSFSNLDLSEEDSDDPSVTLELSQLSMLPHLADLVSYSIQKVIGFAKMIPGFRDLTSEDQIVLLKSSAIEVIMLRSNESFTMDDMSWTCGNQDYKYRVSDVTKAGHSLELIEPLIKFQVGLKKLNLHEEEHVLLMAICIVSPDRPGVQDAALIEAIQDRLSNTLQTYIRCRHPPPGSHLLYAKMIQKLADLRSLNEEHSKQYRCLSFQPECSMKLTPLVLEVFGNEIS
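Signal is fluorescence polarization, reporting how far test compounds block the interaction of VDR with the SRC2-3 coregulator peptide after a 2 h room-temperature incubation.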
Starred values were filed as active, the others as inactive; ? = inconclusive; & = joins results of further samples; [ ] = dose if it differs, or a comment. On the % scale 0 is the no-effect control and ±100 the full control effect; potency means the concentration at half of the fitted maximal effect. An excerpt. The share of hits here may be higher or lower than overall.

VDR inhibitor	Compound
4%	CN(C)c1ccnc2sc(C(=O)c3ccc(Br)cc3)c(N)c12
0%	CC(C(=O)NC1CCCC1)N(C(=O)c1snc(C(N)=O)c1N)c1ccc2c(c1)OCCO2 (stereo not given)
-1%	N#C/C(=C\c1ccc(F)cc1)C(=O)NC1CCS(=O)(=O)C1 (stereo not given)
2%	O=C(COc1ccc(-c2nnco2)cc1)N1CCOCC1
-1%	O=C(Cn1ccc(C(F)(F)F)n1)N/N=C/c1ccc(N2CCOCC2)cc1
-3%	COc1ccc(C(=O)N2c3ccccc3C(C)(c3ccc(Cl)cc3)CC2(C)C)cc1 (stereo not given)
5%	CCCOc1ccc(NC(=O)CC2C(=O)OCC3CCCCN32)cc1 (stereo not given)
1%	Cn1cc(CN2CCCC(CNS(=O)(=O)c3cccc4cccnc34)C2)cn1 (stereo not given)
5%	Cn1ncc(C#N)c1NC(=O)C1CC(c2ccc(Cl)cc2)=NO1 (stereo not given)
-11%	COc1ccc(C(=O)NNC(=O)c2cc3ccccc3cc2O)cc1
-29%	Cc1ccc(S(=O)(=O)Nc2nc3ccc(S(=O)(=O)N4CCCC4)cc3s2)cc1
-1%	CCn1c(=N)c(C(=O)NC2CCCCC2)cc2c(=O)n3cccc(C)c3nc21
-12%	Cc1ccc(C(=O)Nc2ccc(N3CCN(S(C)(=O)=O)CC3)cc2)cc1
14%	Cc1c(Cl)cccc1NC(=S)NCCC(C)C
4%&7%	COCCNC(=O)Cn1c(=O)n(Cc2ccc(C(=O)NCCc3ccc(OC)c(OC)c3)cc2)c(=O)c2ccccc21
-6%	COc1ccc(OC)c(/C=C2\NC(=O)NC2=O)c1
0%	COc1cc(OC)cc(-c2c(-c3cccs3)c3cc(-c4ccn[nH]4)ccc3n2C)c1
-5%	COc1ccc(-c2noc(C3CCCN(C(=O)c4cccc(F)c4)C3)n2)cc1 (stereo not given)
-7%	COc1ccc(OC)c(C2CC(=O)Nc3c2c(=O)n(C)c2ncnn32)c1 (stereo not given)
2µM*	Cc1ccc(/C=C2/CNC/C(=C\c3ccc(C)cc3)C2=O)cc1
20%	CCCn1c(=O)c2[nH]c(-c3ccc(OCC(=O)Nc4ccc(C#N)cc4)cc3)nc2n(CCC)c1=O
-9%	CCS(=O)(=O)Nc1cccc(-c2ccc3nnc(-c4cccnc4)n3n2)c1
-3%	O=c1ccc2cc(S(=O)(=O)N3CCN(c4ccccc4F)CC3)ccc2o1
9%	O=C(NC1CCCC1)c1cccc2c1C(=O)c1ccc(/C=C/c3ccccc3)cc1S2(=O)=O
-3%	COc1ccc(/C=N\NS(=O)(=O)c2ccc(Br)cc2)cc1COc1ccccc1[N+](=O)[O-]
9%	CCC(=O)N1CCc2cc(S(=O)(=O)NC(Cc3ccccc3)C(=O)NCc3cccc(OC)c3)ccc21 (stereo not given)
-2%	COc1ccc(CN2CCC(C)CC2)cc1OCc1ccccc1
-3%	COc1ccc(C)cc1NC(=O)c1sc2nc(C)nc(N3CCOCC3)c2c1C
9%	CNS(=O)(=O)c1cccc(C(=O)OCC(=O)c2cc(C)n(CC3CCCO3)c2C)c1 (stereo not given)
9%	Cc1ccccc1NC(=O)N1CCc2cc(S(=O)(=O)N3CCC(C)CC3)ccc21
-4%	Cc1csc2nc(-c3ccc(NS(=O)(=O)c4cc(F)ccc4F)cc3)cn12
-4%	CC(Oc1ccccc1)C(=O)N1CCN=C1SCc1cccc(F)c1 (stereo not given)
0%	O=C(CCCOc1ccccc1)NCCc1nc2ccccc2[nH]1
0%	O=C(CN1C(=O)c2ccc(Br)cc2C1=O)NCC1CCCO1 (stereo not given)
-20%	O=C(NCCS(=O)(=O)N1CCN(c2ccccc2F)CC1)c1ccc(Cl)cc1
2%	CCCCc1nnc(NC(=O)CN2C(=O)NC3(CCCCC3)C2=O)s1
-2%	CC1(CCC(=O)N2CCCC(N3CCN(c4cccc(C(F)(F)F)c4)CC3)C2)CC1 (stereo not given)
2%	Cc1nc2ccn(Cc3cccnc3)c(=O)c2cc1C(=O)NCc1ccc(Cl)cc1
-8%	O=C(CSc1nnnn1-c1ccccc1)NC(=O)Cc1ccccc1
5%	CCOC(=O)C(CC)Sc1nnc2c3cc(C)ccc3n(C)c2n1 (stereo not given)
-5%	Cc1c(NC(=O)c2cc([N+](=O)[O-])ccc2N2CCOCC2)cccc1-c1nc2ccccc2o1
1%	COc1ccc(N2CN=C3SCC(=O)N3C2)cc1
-13%	CCO[C@@H]1OC(C(=O)NC2CC2)=C[C@H](c2csc3ccccc23)[C@H]1CCCO
2%	CC(=O)N(OCc1ccc(OC(C)C)c(Cl)c1)C(C)=O
1%	CC1(C)Cc2ccccc2-c2nnc(-c3ccco3)n21
15%	CC1CCN(C(=O)CCCl)c2ccccc21 (stereo not given)
10%	CC1CCN(C(=O)CC#N)CC1
5%	COc1ccc(C(O)(CCN2CCOCC2)c2ccccc2)cc1 (stereo not given)
-16%	Cc1cc(NC(=O)CCCSc2nc(-c3ccco3)cc(C(F)(F)F)n2)no1
-30%	Cn1cccc1Cc1nnc(SCC(=O)Nc2ccc3c(c2)OCCO3)n1-c1ccc(F)cc1

Remaining list, next part
VDR inhibitor	Compound
-2%	COc1cc(OC)cc(-c2c(-c3cccs3)c3cc(-c4ccc(OCc5ccccc5)cc4)ccc3n2C)c1
-12%	OCCN(CCO)c1cc2c3ccccc3ccc2c2ccccc12
1%	O=C(CN1C(=O)CSc2ccccc21)N1CCc2ccccc21
12%	COc1ccc(NC(=O)c2cc(=O)[nH]c(=O)[nH]2)cc1S(=O)(=O)Nc1ccccc1Cl
5%	O=C(N/N=C/c1ccccc1[N+](=O)[O-])c1ccc2nc[nH]c2c1
8%	CN(CC(=O)NNC(=O)CNC(=O)c1ccccc1F)S(=O)(=O)c1ccc(Cl)cc1
0%	CCOc1ccc(OCCC(=O)OCC(=O)NC(C)c2ccccc2)cc1 (stereo not given)
-19%	Cc1ccc(N/C=C/C(=O)c2sc(-c3ccccc3)nc2C)cc1
4%	NC(=O)C1CCN(C(=O)CSc2nc3ccccc3o2)CC1
5%	O=C(CN1C2=NCCN2c2ccccc21)c1ccc(Br)cc1
-20%	COc1ccc(C2CC(c3cccc(OC)c3OC)n3nnnc3N2)cc1 (stereo not given)
0%	COc1cccc(C(=O)Nc2ccc3nc(SCC(=O)N(C)c4ccccc4)sc3c2)c1
-5%	CC(=O)c1ccc(NC(=O)CC2Sc3ccccc3NC2=O)cc1 (stereo not given)
36%[activator]	O=C(COc1ccc(Cl)cc1)c1ccc(O)cc1O
-27%	COC(=O)C1(S(=O)(=O)c2ccc(C)cc2)CCOCC1
12%	CCCC(CCC)C(=O)NC1CC(=O)N(c2ccc3c(c2)OCCO3)C1 (stereo not given)
-25%&6%	O=C(C1CCC(CNS(=O)(=O)c2cccs2)CC1)N1CCN(c2ccc(Cl)cc2)CC1 (stereo not given)
-2%	CC(=O)c1cc2c(cc1NC(=O)CCNC(=O)c1ccccc1Cl)OCO2
-20%	CN(C)C(=O)N1CCC(C(=O)NCc2ccccc2Cl)CC1
-5%	CC1CCCCN1S(=O)(=O)c1ccc(N(C(=O)c2cnccn2)C(C(=O)NC2CCCC2)c2cccs2)cc1 (stereo not given)
?	CCn1c(SCC(=O)N/N=C/C=C\c2ccco2)nc2ccccc21
-7%	O=C(COC(=O)C1CC(=O)N(Cc2ccccc2)C1)c1ccc(Br)cc1 (stereo not given)
5%	COCCc1nn2c(=O)cc(COC(=O)c3ccco3)nc2s1
-29%	CC1CC(C)CN(C(=O)CSCC(=O)Nc2nc(-c3cccs3)cs2)C1 (stereo not given)
2%	O=C1c2ccccc2C(=O)N1CCC1=CCCCC1
10%	CN(C)c1ccc(C(=O)C(=O)c2ccccc2)cc1
1%	O=C(O)c1ccccc1C(=O)c1ccc2c(c1)N(Cc1ccc(Cl)c(Cl)c1)C(=O)CO2
11%	CC(=O)c1ccc(OC(C)C)c(CC(C(N)=O)C(N)=O)c1
6%	CCN1CCN(CC(=O)Nc2ccc(C(C)=O)cc2)CC1
22µM*	c1coc(-c2nc3cc4ccccc4cc3nc2-c2ccco2)c1
16%	O=C(Nc1ccccc1C(F)(F)F)c1ncoc1-c1ccco1
15%	O=[N+]([O-])c1ccc(Sc2n[nH]c(-c3ccc(Cl)cc3Cl)n2)nc1
-4%	Cc1csc(SCC(=O)NC(=O)NCc2ccccc2)n1
-15%	NC(=S)N/N=C/c1ccc(Br)o1
-6%	CN(C)S(=O)(=O)NCc1ccc2c(c1)OCO2
?	O=C(COC(=O)c1cc(S(=O)(=O)N2CCOCC2)ccc1F)Nc1ccc(Cl)cn1
?	O=C(CSc1nnc(CNc2ccc(F)cc2)o1)N1CCCc2ccccc21
-5%	Cc1ccc(CNc2nc(N)c([N+](=O)[O-])c(Nc3cccc(F)c3)n2)cc1
-6%	Cc1ccccc1NC(=O)c1cc(-c2ccco2)nc2ccccc12
7%	COc1cc(NC(=O)COc2cc(C)cc3oc(=O)c(C)c(C)c23)cc(OC)c1OC
14%	Cc1ccc(NC(=O)c2ccc(NCCCN3CCC(C)CC3)c([N+](=O)[O-])c2)c(C)c1
-21%	CCOC(=O)c1c(-c2ccccc2)oc2ccc(O)c(CN3CCOCC3)c12
-1%	N#C/C(=N\Nc1c(Cl)cccc1Cl)C(=O)NN
10%	Cc1cc(-c2ccc(C)c(S(=O)(=O)N3CCC(C)CC3)c2)on1
-5%	O=C(/C=C/c1ccco1)N(Cc1ccccc1)C1CCS(=O)(=O)C1 (stereo not given)
-26%	CCCc1c(C)nc2ccccc2c1SCCC#N
?	O=C(CSc1oc(-c2ccccc2)nc1S(=O)(=O)c1ccc(Br)cc1)NC1CCCCC1
-4%	COc1ccc(C2CC(c3cccc(F)c3)=NN2c2ccc(S(N)(=O)=O)cc2)cc1 (stereo not given)
-4%	O=[n+]1c2c(n([O-])c3c1CCC3)CCCC2
?	S=C1NC(c2cccs2)=CC(c2ccc(Br)cc2)N1 (stereo not given)

Going on with the list.
VDR inhibitor	Compound
-2%	Cc1cc(=O)n2[nH]c(C)cc2n1
10%	CC(=O)c1c[nH]c(C(=O)NC2CCCCCC2)c1
-3%	C=C(C)c1cccc(C(C)(C)NC(=O)N2CCC(C(N)=O)CC2)c1
3%	CSCCC(NC(=O)c1ccccc1)C(=O)OCC(=O)N(C)CCC#N (stereo not given)
0%	Cc1ccc(CC(NC(=O)C2CCCCC2)C(=O)O)cc1 (stereo not given)
-8%	CN(Cc1nccn1C)C(=O)c1cc(COc2cccc(C(F)(F)F)c2)on1
-15%	Cc1nonc1OCCCNc1ccc([N+](=O)[O-])cc1Cl
1%	Cc1cc(C(=O)NC(C)c2ccncc2)cs1 (stereo not given)
-23%	O=C(NCCC1CCCCN1S(=O)(=O)c1ccc(F)cc1)C(=O)NCc1ccccn1 (stereo not given)
-5%	CCc1nnc(NC(=O)CC(=O)Nc2ccccc2C(=O)O)s1
15%	O=C(Cc1ccccc1[N+](=O)[O-])NNC(=O)c1ccncc1
-24%	O=C(COC(=O)CCC1CCCC1)Nc1ccc(F)cc1
2%	CN(C)c1cccc2c(/C=N/O)ccc(N(C)C)c12
-13%	CCCN(CC(=O)Nc1ccccc1C)C(=O)COc1c(Cl)cccc1Cl
-19%	Cc1cc(C)c(S(=O)(=O)Nc2ccnc(-c3cccnc3)n2)c(C)c1
-18%	Cc1cc(C(=O)NNC(=S)NCc2ccco2)nn1C
-2%	O=C(COC(=O)c1cc[n+]([O-])cc1)Nc1ccc(SC(F)F)cc1
-18%	O=C(Nc1ccccc1)c1cc([N+](=O)[O-])ccc1NCc1cccnc1
5%	CCOc1ccc(CNC(=O)c2oc3c(c2C)-c2nn(Cc4cccc(Cl)c4)cc2CC3)cc1
22%	COc1cc(NC(=O)c2ccco2)c(OC)cc1NC(=O)CCC(=O)Nc1cccc(C)c1C
-14%	CC(=O)N1CCc2c(sc3c2c(=O)n(CCc2ccccc2)c(=O)n3Cc2cccc(C)c2)C1

Grouped by structure, those above containing an aryl thioether with sulfur outside any ring.
VDR inhibitor	Compound
-8%	O=C(CSc1nnnn1-c1ccccc1)NC(=O)Cc1ccccc1
5%	CCOC(=O)C(CC)Sc1nnc2c3cc(C)ccc3n(C)c2n1 (stereo not given)
-16%	Cc1cc(NC(=O)CCCSc2nc(-c3ccco3)cc(C(F)(F)F)n2)no1
-30%	Cn1cccc1Cc1nnc(SCC(=O)Nc2ccc3c(c2)OCCO3)n1-c1ccc(F)cc1
4%	NC(=O)C1CCN(C(=O)CSc2nc3ccccc3o2)CC1
0%	COc1cccc(C(=O)Nc2ccc3nc(SCC(=O)N(C)c4ccccc4)sc3c2)c1
?	CCn1c(SCC(=O)N/N=C/C=C\c2ccco2)nc2ccccc21
15%	O=[N+]([O-])c1ccc(Sc2n[nH]c(-c3ccc(Cl)cc3Cl)n2)nc1
-4%	Cc1csc(SCC(=O)NC(=O)NCc2ccccc2)n1
?	O=C(CSc1nnc(CNc2ccc(F)cc2)o1)N1CCCc2ccccc21
-26%	CCCc1c(C)nc2ccccc2c1SCCC#N
?	O=C(CSc1oc(-c2ccccc2)nc1S(=O)(=O)c1ccc(Br)cc1)NC1CCCCC1
-2%	O=C(COC(=O)c1cc[n+]([O-])cc1)Nc1ccc(SC(F)F)cc1

Ordered by the number under VDR inhibitor (smallest number first): three of the compounds above.
VDR inhibitor	Compound
-13%	CCCN(CC(=O)Nc1ccccc1C)C(=O)COc1c(Cl)cccc1Cl
-5%	CCc1nnc(NC(=O)CC(=O)Nc2ccccc2C(=O)O)s1
0%	Cc1ccc(CC(NC(=O)C2CCCCC2)C(=O)O)cc1 (stereo not given)
